# A1 inhib: blocks A1 activity | hit rate 0.51% among 21,000 | MEF A1-2A-BIM cells, caspase-Glo luminescence, 3 h; percent of clofoctol signal, DMSO as zero | AID 2241 | caspase activation, % (no concentration beside the values);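 active means most replicate scores above 10, or exactly half above 10 with mean activity above 10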;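 further: effector caspase 3 and 7 activity cleaving a DEVD luciferin substrate; 50 nL library stock added to about 30 µL; numbers are from one replicate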
# BJeLR viab HTS: compounds reducing viability of BJeLR cells. hit rate 0.64% among 30,000. viability loss activity score, % (concentration not given with the values). BJeLR fibroblasts viability, CellTiterGlo ATP luminescence, 48 h; HRASV12, hTERT and SV40 LT/ST transformed. AID 2275; in the data active means viability loss activity score above about 50%; about a fifth of its hits are not listed in these tables;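 further: higher score means fewer live cells and less ATP luminescence; stock transfer was 50 or 100 nL into about 30 µL; 0% = vehicle wells and 100% = a reference killing control; one replicate is shown; the record names a cut of 85%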
# Active calls of the source: *; . = not tested or not shown. The list is partial; count on the stated rates, not on these rows.
SMILES,A1 inhib,BJeLR viab HTS
COc1ccc(NC(=O)Nc2ccc3c(c2)C(=O)N([C@H](C)CO)C[C@@H](C)[C@@H](CN(C)C(=O)Nc2ccccc2)O3)cc1,0.3,-3.0
Cc1ccc2nc(C(F)(F)F)cc(N3CCN(/C=C(/C#N)S(=O)(=O)c4ccccn4)CC3)c2c1,-0.2,-6.2
C[C@@H]1CN([C@@H](C)CO)C(=O)c2cc(NS(=O)(=O)c3cccs3)ccc2O[C@H]1CN(C)C(=O)Nc1ccc2c(c1)OCO2,-0.5,1.0
COc1ccc(OC)c2c(C)cc(Cl)nc12,0.2,-3.7
COc1ccc(CN(C)C[C@H]2Oc3c(NS(=O)(=O)c4ccccc4)cccc3C(=O)N([C@H](C)CO)C[C@H]2C)cc1,.,-3.6
C[C@H]1CN([C@@H](C)CO)C(=O)c2cccc(NC(=O)C3CCCCC3)c2O[C@H]1CN(C)C(=O)Nc1ccc2c(c1)OCO2,.,3.1
C[C@@H]1CN([C@H](C)CO)C(=O)c2cc(NC(=O)Nc3ccc4c(c3)OCO4)ccc2O[C@@H]1CN(C)S(=O)(=O)c1cccs1,0.1,7.6
O=C(NCc1ccccc1)C(Cc1ccccc1)NS(=O)(=O)c1cccc2nsnc12 (stereo not given),.,3.7
COc1ccc(NC(=O)N2c3ccccc3Sc3ccccc32)cc1,.,-5.4
C[C@@H]1CN([C@H](C)CO)C(=O)c2cccc(NS(=O)(=O)c3ccc(Cl)cc3)c2O[C@H]1CN(C)Cc1ccc(Oc2ccccc2)cc1,.,-0.9
O=C(Oc1ccccc1)C(c1ccccc1)c1ccccc1,0.0,4.5
Cc1ccc(S(=O)(=O)N(C)C[C@H]2Oc3c(NC(=O)c4ccc(-c5nccs5)cc4)cccc3C(=O)N([C@H](C)CO)C[C@H]2C)cc1,.,-6.5
COc1ccc(N/C=C/C(=O)c2ccc3c(c2)OCO3)cc1OC,-4.7,-4.0
COc1ccc(-c2cc(C(=O)Nc3cc(Cl)ccc3OC)c3ccccc3n2)cc1,-0.3,2.5
CC(C)(C)n1cnc2cc(NCc3ccccn3)ccc21,.,4.2
CC1CCC/C(=C/Nc2ccc3c(c2)OCO3)C1=O (stereo not given),.,2.1
Cc1cc(C)cc(NC(=O)c2ccc3c(c2)NC(=O)c2ccccc2S3)c1,3.5,24.9
COc1ccc(NC(=O)N(C)C[C@H]2Oc3c(NS(=O)(=O)c4cn(C)cn4)cccc3C(=O)N([C@H](C)CO)C[C@@H]2C)cc1,.,-2.8
Cc1cc(C)cc(-n2c(SCC(=O)Nc3ccccc3C(F)(F)F)nc3c(c2=O)SCC3)c1,1.2,-4.5
Cc1noc(C)c1S(=O)(=O)N(C)C[C@@H]1Oc2c(NS(=O)(=O)c3cn(C)cn3)cccc2C(=O)N([C@@H](C)CO)C[C@H]1C,.,-1.7
COc1ccc(S(=O)(=O)Nc2ccc3c(c2)C(=O)N([C@@H](C)CO)C[C@H](C)[C@@H](CN(C)S(=O)(=O)c2ccc(Cl)cc2)O3)cc1,-0.2,-1.9
CSc1nn(-c2ccccc2)cc1C(=O)Nc1cccc(C(F)(F)F)c1,0.6,3.1
C[C@@H]1CN([C@H](C)CO)C(=O)c2cccc(NC(=O)Nc3ccc(C(F)(F)F)cc3)c2O[C@@H]1CN(C)Cc1ccccc1,.,1.9
C[C@@H]1CN([C@@H](C)CO)C(=O)c2cccc(NC(=O)Nc3ccc(C(F)(F)F)cc3)c2O[C@@H]1CN(C)S(C)(=O)=O,.,-0.3
CCCCCCCCCCCCCC(=O)N[C@H](C)[C@@H](O)c1ccccc1,0.7,0.3
Cc1noc(C)c1NC(=O)Nc1cccc2c1O[C@H](CN(C)Cc1ccncc1)[C@@H](C)CN([C@H](C)CO)C2=O,.,-1.0
CCC1CCc2nc3sc(C(=O)Nc4ccccc4C(F)(F)F)c(N)c3cc2C1 (stereo not given),0.3,4.2
COc1ccc(/C=C/c2cc(O)cc(O[C@@H]3O[C@H](CO)[C@@H](O)[C@H](O)[C@H]3O)c2)cc1,0.0,-4.2
CCCN(CCC)S(=O)(=O)c1ccc(C(=O)Nc2cccc(SC)c2)cc1,0.0,-3.4
C=C(C)CC(NC(C)c1ccccc1)c1ccco1 (stereo not given),0.2,4.6
Cc1noc(C)c1NC(=O)Nc1cccc2c1O[C@@H](CN(C)S(=O)(=O)c1ccc(F)cc1)[C@@H](C)CN([C@H](C)CO)C2=O,.,0.2
CCN(CC)C(=O)c1sc(N)c(C#N)c1C,0.7,0.0
C[C@@H]1CN([C@@H](C)CO)C(=O)c2cccc(NC(=O)Nc3ccc(C(F)(F)F)cc3)c2O[C@H]1CN(C)C,.,1.8
COc1ccc(S(=O)(=O)N(C)C[C@H]2Oc3ccc(NS(=O)(=O)c4ccc(F)cc4)cc3C(=O)N([C@H](C)CO)C[C@@H]2C)cc1,0.3,3.5
COc1ccc(-c2cc(C(F)(F)F)nc(SCCC(=O)N(C)c3ccccc3)n2)cc1,-1.1,-1.3
CCn1cc(C2=NC(c3ccccc3)CO2)c2ccccc21 (stereo not given),1.2,2.9
NC(=O)c1ccc(-c2nnc(-c3ccccc3)o2)cc1,-3.2,-4.7
CCOC(=O)c1[nH]ncc1Sc1ccc(Cl)cc1,0.6,5.9
O=C(NCc1cccnc1)/C(=C\c1ccc(Br)cc1)S(=O)(=O)c1ccccc1,1.0,6.8
C[C@H](CO)N1C[C@H](C)[C@H](CN(C)C(=O)Nc2ccc(F)cc2)Oc2c(NC(=O)C3CCCCC3)cccc2C1=O,.,-3.1
CC(C)NC(=O)N(C)C[C@H]1Oc2c(NS(=O)(=O)c3ccc(F)cc3)cccc2C(=O)N([C@H](C)CO)C[C@@H]1C,.,1.2
C[C@@H]1CN([C@H](C)CO)C(=O)c2cccc(NS(=O)(=O)c3ccc(Cl)cc3)c2O[C@@H]1CN(C)CC1CCCCC1,.,0.3
O=C(CCn1cccc(C(F)(F)F)c1=O)Sc1ccccc1,0.2,0.2
C[C@@H]1CN([C@@H](C)CO)C(=O)c2cccc(NS(=O)(=O)c3ccccc3)c2O[C@H]1CN(C)S(=O)(=O)c1ccc(F)cc1,.,-3.2
COc1ccc(CCNC(=O)c2cnn3ccccc23)c(OC)c1OC,0.2,-1.1
C[C@@H]1CN([C@@H](C)CO)C(=O)c2cc(NS(=O)(=O)c3cccs3)ccc2O[C@@H]1CN(C)Cc1ccc(C(F)(F)F)cc1,0.4,2.7
O=C(Oc1ccc(Br)cc1)c1cccnc1,0.8,-6.5
CC(C)(C)c1ccc(NC(=O)Nc2ccc3c(c2)OCCO3)cc1,-1.4,-0.9
COc1ccc(S(=O)(=O)Nc2cccc3c2O[C@H](CN(C)S(C)(=O)=O)[C@H](C)CN([C@@H](C)CO)C3=O)cc1,.,-1.4
O=C(O)c1ccc(Nc2ccnc3cc(Cl)ccc23)cc1,-0.8,-1.0
C[C@@H]1CN([C@@H](C)CO)C(=O)c2cccc(NC(=O)Nc3ccc(F)cc3)c2O[C@@H]1CN(C)S(=O)(=O)c1ccc(F)cc1,.,-2.3
O=C(Cn1c(=O)n(-c2ccccc2)c(=O)c2sccc21)NCc1ccco1,.,2.6
C[C@H](CO)N1C[C@H](C)[C@@H](CN(C)C(=O)Nc2ccc3c(c2)OCO3)Oc2c(NC(=O)c3ccc(-c4nccs4)cc3)cccc2C1=O,.,0.4
C[C@H](CO)N1C[C@H](C)[C@H](CN(C)C(=O)NC2CCCCC2)Oc2c(NC(=O)C3CCOCC3)cccc2C1=O,.,-3.9
COC(=O)c1cc(S(=O)(=O)Nc2nn(C)c3ccccc23)oc1C,.,2.1
C[C@H]1CN([C@@H](C)CO)C(=O)c2cc(NC(=O)CCN3CCOCC3)ccc2O[C@@H]1CN(C)CC1CCCCC1,0.5,1.3
O=c1cc(C(F)(F)F)nc2c(-c3ccccc3)c(C(F)(F)F)[nH]n12,0.2,0.0
C[C@@H]1CN([C@H](C)CO)C(=O)c2cccc(NS(=O)(=O)c3ccc(Cl)cc3)c2O[C@H]1CN(C)C(=O)NC1CCCCC1,.,2.8
O=C(c1ccccc1)N(Cc1ccco1)C1CCS(=O)(=O)C1 (stereo not given),-0.3,-1.5
C[C@H]1CN([C@@H](C)CO)C(=O)c2cccc(NS(=O)(=O)c3cn(C)cn3)c2O[C@@H]1CN(C)C(=O)Nc1ccccc1,.,4.3

# (more compounds)
SMILES,A1 inhib,BJeLR viab HTS
COc1ccc(S(=O)(=O)N(C)C[C@H]2Oc3ccc(NC(=O)Nc4ccc5c(c4)OCO5)cc3C(=O)N([C@H](C)CO)C[C@H]2C)cc1,0.0,3.9
COc1ccc(CN(C)C[C@@H]2Oc3c(NC(=O)C4CCOCC4)cccc3C(=O)N([C@H](C)CO)C[C@H]2C)cc1,.,5.8
CCN(C(=O)c1cc(S(=O)(=O)N2CCc3ccccc32)cn1C)c1ccccc1,-0.1,-0.9
C[C@]12CCC(=O)C=C1CC[C@@H]1C2[C@@H](O)C[C@@]2(C)C1CC[C@@H]2C(=O)CO (stereo not given in full),-0.4,-5.1
CC(C(=O)OCC(=O)n1c2c(c3ccccc31)CCCC2)N1C(=O)c2ccccc2C1=O (stereo not given),0.2,0.8
COc1ccc(S(=O)(=O)Nc2cccc3c2O[C@H](CN(C)CC2CCCCC2)[C@@H](C)CN([C@@H](C)CO)C3=O)cc1,.,3.2
O=c1c2cc(NC(=S)NCC3CCCO3)ccc2nc2n1CCCCC2 (stereo not given),.,-1.9
S=C(NCc1ccccc1)NCc1ccccn1,-0.2,-7.7
Cc1noc(C)c1S(=O)(=O)N(C)C[C@@H]1Oc2c(NC(=O)c3nc4ccccc4s3)cccc2C(=O)N([C@@H](C)CO)C[C@@H]1C,.,-4.1
C[C@H](CO)N1C[C@H](C)[C@@H](CN(C)S(=O)(=O)c2cccs2)Oc2ccc(NC(=O)Nc3ccccc3)cc2C1=O,0.1,-3.5
Oc1ccc2ccccc2c1/C=N/N1CCN(Cc2ccccc2)CC1,0.4,3.4
Cc1noc(C)c1NC(=O)N(C)C[C@H]1Oc2ccc(NS(=O)(=O)c3ccccc3)cc2C(=O)N([C@H](C)CO)C[C@H]1C,-0.2,0.7
COc1ccc(NC(=O)Nc2cccc3c2O[C@H](CN(C)C(=O)Nc2ccccc2)[C@@H](C)CN([C@H](C)CO)C3=O)cc1,.,-7.6
CCN(CC)C(=S)Oc1ccccc1C(=O)Nc1ccc(Cl)c(Cl)c1,-0.9,0.8
COc1ccccc1N1CCN(S(=O)(=O)c2ccc3[nH]cc(C(=O)O)c(=O)c3c2)CC1,1.1,2.3
COc1ccc(CN(C)C[C@@H]2Oc3ccc(NC(=O)Nc4ccc(F)cc4)cc3C(=O)N([C@@H](C)CO)C[C@@H]2C)cc1,0.6,2.1
CC(C)NC(=O)N(C)C[C@H]1Oc2c(NS(=O)(=O)c3cn(C)cn3)cccc2C(=O)N([C@@H](C)CO)C[C@@H]1C,.,3.6
N#Cc1cc(C#N)c(SCC(=O)NCc2ccco2)nc1N,-1.0,-2.1
CCN(CC)c1ccc2cc(C(N)=O)c(=Nc3cccc(C)c3)oc2c1,0.6,-10.2
CC1=CC(=O)CC2[C@@]1(C)CC[C@@H](C)[C@]2(C)CCC(C)CC(=O)O (stereo not given in full),0.8,-0.5
NS(=O)(=O)c1ccc(N(S(=O)(=O)c2ccccc2)S(=O)(=O)c2ccccc2)cc1,-0.2,-2.1
CC1(C)CC(NC(=O)c2ccccc2C(=O)NC2CC(C)(C)NC(C)(C)C2)CC(C)(C)N1,0.6,2.0
C[C@H]1CN([C@@H](C)CO)C(=O)c2cccc(NC(=O)c3ccc(-c4nccs4)cc3)c2O[C@H]1CN(C)Cc1ccc(Oc2ccccc2)cc1,.,5.9
Cc1noc(C)c1NC(=O)N(C)C[C@H]1Oc2ccc(NS(C)(=O)=O)cc2C(=O)N([C@H](C)CO)C[C@@H]1C,0.3,-6.4
CC(O)c1cccc(NC(=O)c2cnn3c2NC(c2cccs2)CC3C(F)(F)F)c1 (stereo not given),-0.2,-3.7
O=C1CCC(=O)N1CNc1ccccn1,0.9,-4.7
CC(C(=O)O)n1c2ccccc2c2cnn(C)c(=O)c21 (stereo not given),-0.4,7.4
Cc1noc(C)c1C(=O)N1CCc2sccc2C1c1ccc(C(F)(F)F)cc1 (stereo not given),0.8,11.1
COc1ccc(S(=O)(=O)N(C)C[C@H]2Oc3ccc(NC(=O)Cc4cn(C)c5ccccc45)cc3C(=O)N([C@H](C)CO)C[C@H]2C)cc1,0.3,-3.1
